High-throughput results: PubChem, several laboratories
Env fusion inh = inhibitors of HIV-1 Env-driven cell-cell fusion, primary screen, HeLa-JRFL effector, CEM21 target cells, luciferase; inhibition, % at 12.3 µM; actives 1.1% (n = 360,000); AID 651610, 2012;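 active means mean replicate inhibition score of at least 50 and every replicate individually at or above 50; inconclusive means only one of the two criteria met; inactive means mean below 50 and not all replicates reaching 50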;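 further: 0% = plate neutral controls and 100% = maraviroc near 300 nM; one replicate is shown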
UUG fidelity = modulators of yeast start codon fidelity, primary screen, whole organism, S. cerevisiae, single point, plate reader. activity score, % at 18.7 µM. AID 602363, 2012. actives 0.13% (n = 350,000). S. cerevisiae UUG-firefly luciferase reporter, luminescence/redox ratio;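 active means replicate mean at a twofold rise or more, about +100% in these data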;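 further: firefly luciferase made from a UUG start codon reports start codon fidelity; reporter light over untreated wells divided by growth signal over untreated wells; some hits fall short of that in this replicate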
CSC inhib = cancer stem cell viability inhibitors, primary screen, luminescence. actives 1.1% (n = 300,000). cancer stem cell-like cells viability. inhibition, % at 7.5 µM;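 active means mean at 75% or more and at least half the replicates too; inconclusive means mean and replicates disagree; tested in HMLE shEcad cells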;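 further: 0% = median of negative and 100% = median of positive control wells; the first replicate is given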
PABP FP inh = PABP poly(A) RNA binding inhibitors, primary screen, biochemical, fluorescence polarization, uHTS. Polyadenylate-binding protein 1 (Homo sapiens), P11940. inhibition, % at 35 µM. actives 1% (n = 290,000);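 active means 50% or more with normal probe brightness, or confirmed in later tests; inconclusive means above 50% with abnormal brightness, or retests that disagree; inactive means below 50% or failed in later tests; about a fifth of its hits are not listed in these tables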;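 further: calls also rest on retests at 20 µM and on dose response follow-up; controls were probe without protein and protein plus probe with vehicle; some compounds called inactive have numbers as strong as hits; many hits fall short of the cut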
Target sequence (P11940 whole entry, looked up): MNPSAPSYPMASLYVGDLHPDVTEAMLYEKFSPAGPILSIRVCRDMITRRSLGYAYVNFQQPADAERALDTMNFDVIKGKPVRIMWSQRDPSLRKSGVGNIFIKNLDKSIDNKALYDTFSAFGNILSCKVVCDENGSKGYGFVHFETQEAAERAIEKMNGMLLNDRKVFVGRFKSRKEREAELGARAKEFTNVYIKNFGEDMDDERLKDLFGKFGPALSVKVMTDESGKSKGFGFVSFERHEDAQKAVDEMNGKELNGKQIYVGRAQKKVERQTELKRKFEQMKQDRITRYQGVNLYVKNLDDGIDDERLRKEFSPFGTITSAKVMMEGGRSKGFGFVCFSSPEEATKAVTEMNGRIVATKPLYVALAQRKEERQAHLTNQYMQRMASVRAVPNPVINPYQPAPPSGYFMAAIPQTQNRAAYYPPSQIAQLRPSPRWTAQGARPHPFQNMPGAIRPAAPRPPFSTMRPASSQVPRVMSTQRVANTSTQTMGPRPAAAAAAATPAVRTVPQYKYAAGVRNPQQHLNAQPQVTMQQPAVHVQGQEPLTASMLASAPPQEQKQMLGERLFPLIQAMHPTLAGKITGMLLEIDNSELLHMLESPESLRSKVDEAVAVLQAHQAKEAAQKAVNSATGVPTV
Rce1 inhib = yeast Rce1p protease inhibitors, primary screen, biochemical, fluorescence, cell-free homogeneous; CAAX prenyl protease 2 (Saccharomyces cerevisiae (strain ATCC 204508 / S288c)), Q03530; yeast membranes, quenched prenylated peptide cleavage fluorescence; calls only; actives 0.27% (n = 290,000); AID 2563, 2010;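 active means fall in fluorescence gain of 50% or more versus controls, with final raw signal at or below 3038400; inconclusive means same 50% fall but final raw signal above 3038400; inactive means fall in fluorescence gain under 50%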;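 further: plate controls were neutral control wells for no effect and wells lacking membranes for full effect; tested at 10 µM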
Target sequence (Q03530 whole entry, looked up): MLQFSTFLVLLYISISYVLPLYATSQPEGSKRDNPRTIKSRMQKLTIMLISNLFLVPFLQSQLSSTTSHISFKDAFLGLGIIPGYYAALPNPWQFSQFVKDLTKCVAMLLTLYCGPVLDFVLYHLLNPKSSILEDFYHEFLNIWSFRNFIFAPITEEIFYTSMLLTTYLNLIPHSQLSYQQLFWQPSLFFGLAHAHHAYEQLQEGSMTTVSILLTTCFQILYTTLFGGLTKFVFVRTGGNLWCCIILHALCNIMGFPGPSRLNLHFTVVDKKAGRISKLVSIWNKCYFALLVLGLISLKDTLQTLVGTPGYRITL
MT1-MMP act inh = blockers of MT1-MMP proenzyme processing, primary screen, HT1080 RFP-PRO-GFP cells, GFP/RFP fluorescence | AID 651647, 2012 | Matrix metalloproteinase-14 (Homo sapiens), P50281 | actives 0.061% (n = 360,000) | GFP/RFP ratio fluorescence, overnight; percent of plate control window, DMSO zero | GFP/RFP ratio change, % at 20 µM;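 active means GFP/RFP ratio change of at least 30% with cell ATP level not reduced by more than half and red fluorescence within 50% of control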; further: strong numbers were not always called active
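Test system: HT1080 RFP-PRO-GFP cells; Benchmarks: DMSO and RFP-L50D-GFP cell wells; Timing: cells overnight before dosing, compound overnight, 37 °C, 5% CO2; Compound: one 20 µM compound dose with 1% DMSO; Read-out: GFP/RFP fluorescence ratio.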
eIF4H FP inh = human eIF4H binding inhibitors, primary screen, translation initiation inhibitor project, biochemical, uHTS, fluorescence polarization; eIF4H fluorescence polarization binding assay; inhibition, % at 35 µM; actives 0.94% (n = 290,000);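 active means 50% or more with normal probe brightness, or confirmed in later tests; inconclusive means above 50% with abnormal brightness, or retests that disagree; inactive means below 50% or failed in later tests; about a fifth of its hits are not listed in these tables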;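 further: calls also rest on retests at 20 µM and on dose response follow-up; 0% = protein and probe with vehicle and 100% = probe without protein; strong numbers were not always called active; many hits fall short of the cut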
eIF4H FP inh retest = further read-out of eIF4H FP inh, marked with its call; inhibition, %; compound at 20 µM; confirmation average;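 mean of two retest wells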
PABP FP inh retest = further read-out of PABP FP inh, marked with its call; inhibition, %; compound at 20 µM; confirmation repeats;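 mean of two retest wells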
MT1-MMP act inh RFP = further read-out of MT1-MMP act inh, marked with its call; RFP signal change, %; measured here: RFP expression control read;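 0 = vehicle wells; hits needed this value within 50% of zero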
The depositor's hits bear a star; i = inactive; ? = inconclusive; / = no result given; + = active, no number.

The first 2 records (preview)
SMILES | Env fusion inh | UUG fidelity | CSC inhib | PABP FP inh | Rce1 inhib | MT1-MMP act inh | MT1-MMP act inh RFP | eIF4H FP inh | others
CCCCCc1nnc(NC(=O)Cn2cnc3ccccc3c2=O)s1 | -7 | / | -5 | 0 | i | 2 | 6 | 0
O=C(NC(=S)Nc1ccc(Br)cc1)C1CCC1 | -30 | -25 | 2 | 6 | i | 2 | 0 | 3

The whole of this part, from the first entry:
SMILES | Env fusion inh | UUG fidelity | CSC inhib | PABP FP inh | Rce1 inhib | MT1-MMP act inh | MT1-MMP act inh RFP | eIF4H FP inh | others
CCCCCc1nnc(NC(=O)Cn2cnc3ccccc3c2=O)s1 | -7 | / | -5 | 0 | i | 2 | 6 | 0
O=C(NC(=S)Nc1ccc(Br)cc1)C1CCC1 | -30 | -25 | 2 | 6 | i | 2 | 0 | 3
O=C(CSc1nnc(-c2cccnc2)n1-c1ccccc1)NCc1ccc2c(c1)OCO2 | / | -2 | 3 | -6 | i | 4 | 3 | -6
CCc1cc(N2CCOCC2)cc2c1[nH]c1ccccc12 | / | -7 | 5 | -1 | + | 8 | 2 | 6
CS(=O)(=O)N1CCN(c2ccccc2NC(=O)C(c2ccccc2)c2ccccc2)CC1 | 71* | -6 | -5 | 8 | i | 10 | 0 | 0
COc1ccc(C(=O)NCCNc2nc3ccc(C)cc3cc2C#N)cc1OC | -22 | -21 | -4 | 5 | i | 1 | 1 | 2
O=C(NCC(F)(F)F)c1ccc(S(=O)(=O)Nc2ccccc2N2CCCC2)cc1 | -12 | -9 | 13 | / | / | -10 | 7 | /
COc1ccc(NC(=O)COC(=O)c2ccc(S(=O)(=O)N3CCCC3)cc2)cc1OC | -4 | -15 | -19 | / | / | -3 | 0 | /
Cc1ccc(NC(=O)c2sc3nc[nH]c(=O)c3c2C)c(C)c1 | / | -10 | 10 | -3 | i | 3 | -2 | 0
CCOc1c2ccc(C(=O)NCc3ccc(OC(F)(F)F)cc3)cc2nn1C | 7 | -13 | -26 | 0 | i | 0 | 1 | 1
Cc1cc(NC(=O)CN2CCN(c3ccccc3O)CC2)no1 | -44 | -16 | -6 | -5 | i | -2 | 3 | 0
CCOC(=O)c1c(NC(=O)CSc2nnc(-c3cccnc3)o2)sc(C(C)=O)c1C | -13 | 9 | -4 | -8 | i | -8 | 1 | -10
Cc1ccc(SCc2noc(C(=O)NC(C)C)c2C(=O)O)cc1C | -112 | -5 | 22 | -3 | i | 1 | -1 | -11
COc1cccc2cc(C(=O)N3CCN(C(=O)c4ccco4)CC3)c(=O)oc12 | -18 | / | -10 | 6 | i | 3 | 5 | -4
COc1ccc(C(=O)/C=C/C(=O)N(CC(=O)NC2CCCCC2)CC2CCCO2)c(O)c1 (stereo not drawn) | -207 | / | 4 | -8 | i | -4 | 3 | 2
Cc1ccc(C2=NOC(C)(c3sc(-c4ccc(Cl)cc4)nc3C)C2)cc1 (stereo not drawn) | -23 | -13 | 31 | / | i | -1 | 5 | /
O=C(Cc1ccccc1)Nc1ccc(NC(=O)Cc2ccccc2)c(Cl)c1 | -10 | -7 | -15 | -2 | / | 2 | 1 | -1
CC(C)N(C(=O)Cn1c(=O)oc2ccccc21)c1ccccc1 | -14 | 2 | -11 | 1 | i | / | / | -17
COc1ccccc1NC(=O)c1sc2ncn(CC(=O)Nc3ccccc3)c(=O)c2c1C | 27 | -13 | / | -1 | i | -1 | 1 | 13
O=C(Oc1ccccc1)N1CCCCC1 | 1 | -9 | / | / | / | 6 | -1 | /
COc1ccc(CN(C)C(c2ccccc2)c2nnnn2-c2ccccc2C)c(OC)c1C (stereo not drawn) | / | 4 | 37 | 7 | i | -12 | -10 | -3
C/C(=N\S(=O)(=O)c1ccc(C)cc1)Nc1cc(C(C)C)c(O)cc1C | 7 | -21 | -19 | 1 | i | 3 | 0 | -7
CSc1ccccc1C(=O)N1CCc2ccccc2C1 | 0 | -11 | -9 | ? | i | 5 | 5 | -2
COC(=O)c1sc2ncn(N)c(=O)c2c1C | / | / | -26 | -2 | i | / | / | -6
COC(=O)c1[nH]c2cc(OC)ccc2c1NC(=O)CCN1CCCCC1 | / | -7 | -2 | 0 | i | -1 | 1 | -1
CC(C)n1c(-c2cccs2)nc2ccccc21 | / | -7 | -10 | -8 | i | -6 | -7 | 2
COC(=O)[C@@H]1C[C@@H](C(=O)O)[C@H](C)C1(C)C | 11 | -8 | -7 | / | / | 3 | 6 | /
CC(C)(C)SCCNS(=O)(=O)c1ccc2ccccc2c1 | 30 | / | -10 | 8 | i | 2 | -6 | 0
COc1ccc(OC)c(-c2csc(N(Cc3ccco3)C(=O)c3ccco3)n2)c1 | 1 | -45 | 29 | 0 | i | -11 | -10 | -12
O=C(Nc1ccc(Cl)c(S(=O)(=O)N2CCCCC2)c1)c1ccco1 | 19 | -6 | / | / | / | 9 | -10 | /
CC(=O)Nc1ccc2c(COC(=O)[C@H](C)N3C(=O)C4CCCCC4C3=O)cc(=O)oc2c1 (stereo partly drawn) | 9 | -14 | -12 | 2 | i | -1 | 1 | 10
CSC1=NCCN1C(=O)c1ccc(S(=O)(=O)N2CCCCC2)cc1 | 13 | -10 | -6 | -2 | i | 0 | 3 | -9
Cc1ccc(S(=O)(=O)N2CCOCC2)cc1NC(=O)COC(=O)CCc1c[nH]c2ccccc12 | 19 | -6 | / | / | / | -2 | 3 | /
COc1ccc2nc(Nc3nc4cc5c(cc4s3)OCCO5)sc2c1 | -29 | / | 53 | -10 | i | 2 | 1 | 16
Cc1cccc(NC(=O)C(=O)NCCCc2ccccc2)c1 | -2 | / | 34 | -24 | i | / | / | -12
O=c1[nH]c2c(n(C3CCCCC3)c1=O)CCC2 | / | -14 | -9 | -6 | i | -3 | -3 | -8
COc1ccc(C(=O)Oc2coc(CSc3nnc(NC(=O)c4cccs4)s3)cc2=O)cc1 | / | -4 | 63 | -4 | i | 2 | 5 | 83 | eIF4H FP inh retest=15;PABP FP inh retest=15
CC1=C(C(=O)N2CCOCC2)CC(CC(=O)NCCN2CCOCC2)C(=O)N1CCC1=CCCCC1 (stereo not drawn) | 1 | -19 | / | / | / | 2 | 2 | /
COc1cccc(-c2cc(C(=O)Nc3cc(C)on3)no2)c1 | -39 | / | 16 | 5 | i | 5 | -2 | -4
COC(=O)c1ccc(-n2c(C)cc(C(=O)COC(=O)CNS(=O)(=O)c3ccc(C)cc3)c2C)cc1 | -33 | / | -15 | -6 | i | 4 | 2 | 0
N#Cc1nccnc1S(=O)(=O)c1cccs1 | 10 | / | 14 | 1 | i | / | / | 3
Cc1ccc(-c2cc(-c3ccccc3)nc(NN)n2)cc1 | -10 | -15 | 83* | 8 | i | -8 | 8 | -4
O=C(NCCc1c[nH]c2ccccc12)C(=O)NCC1OCCN1S(=O)(=O)c1ccc(F)cc1 (stereo not drawn) | -7 | -1 | 2 | 4 | i | 3 | -2 | 10
CCCc1n[nH]c2c1C(=O)C(C(=O)OC)C(C)(C)C2 (stereo not drawn) | / | -9 | -13 | -4 | i | -3 | -4 | -8
Cc1noc(C)c1COC(=O)CNC(=O)c1cccc(F)c1 | -4 | / | -12 | 12 | i | 0 | 1 | 1
O=S1(=O)N[C@@H](c2ccccc2)COc2cc(Br)ccc21 | -13 | -9 | / | / | / | 0 | -7 | /
CC(C)(C)CN1CCNC(=O)C1CC(=O)NCCc1cnn(-c2ccccc2)c1 (stereo not drawn) | -8 | 6 | -1 | 12 | i | -3 | 2 | 1
O=C(CC1C(=O)NCCN1C(=O)Nc1ccccc1)Nc1cccc(Cl)c1 (stereo not drawn) | 3 | / | 15 | 6 | i | -2 | 0 | -2
CS(=O)(=O)NN1C(=O)c2ccccc2NC12CCCC2 | -3 | / | -13 | -6 | i | 7 | 6 | -1
O=C(CCCN1C(=O)/C(=C\c2cccs2)SC1=S)Nc1cc([N+](=O)[O-])ccc1O | -9 | -11 | 28 | 20 | i | 3 | -17 | 14
CCCCC(=O)Nc1nc2c(OC)ccc(OC)c2s1 | 14 | -9 | -8 | 1 | i | 2 | 2 | -8
CNC(=S)NNc1nncc2ccccc12 | -1 | -12 | -18 | 8 | i | 0 | 2 | 0
CCOc1ccc(S(=O)(=O)N2CCCCC2)cc1NC(=O)c1cccnc1OCC | / | -10 | -2 | / | / | 2 | -4 | /
N#CC1=C(S)N(c2ccccc2)C(c2ccc(-c3ccc(Cl)c(Cl)c3)o2)NC1=O (stereo not drawn) | i | / | 21 | 6 | i | -8 | 2 | -1
COc1ccccc1NC(=O)CSc1nnc(-c2ccco2)n1N | 3 | -22 | -15 | 10 | i | -1 | 2 | 0
CCOC(=S)SCC(=O)N1CCc2cc(OC)ccc2C1C1C(=O)CCCC1=O (stereo not drawn) | 25 | -16 | 41 | -9 | i | 2 | 3 | -3
COc1ccc(C(=O)C2C(c3ccc(-c4ccccc4[N+](=O)[O-])o3)NC(=O)NC2(O)C(F)(F)F)cc1 (stereo not drawn) | 2 | / | -11 | -15 | i | 4 | -1 | 14
Cc1cccc(C)c1NC(=O)/C(C#N)=C/c1ccc(-c2ccc(C(=O)O)cc2)o1 | -401 | -2 | 0 | 17 | i | -1 | -2 | 7
Cc1ccc(CSc2nc3ccccc3c(=O)[nH]2)cc1 | -4 | -19 | 5 | -19 | i | 6 | 2 | -3
C=C(Cl)COc1cc(C)cc2oc(=O)cc(CC)c12 | -88 | -7 | -15 | 4 | i | -10 | -9 | 0
Next part:
SMILES | Env fusion inh | UUG fidelity | CSC inhib | PABP FP inh | Rce1 inhib | MT1-MMP act inh | MT1-MMP act inh RFP | eIF4H FP inh | others
O=C(C[n+]1cccc2ccccc21)c1ccc(Br)cc1 | -27 | 1 | -1 | 16 | i | -37 | 7 | 31
O=C(NCc1ccncc1)C1CCN(S(=O)(=O)Cc2ccccc2)CC1 | -6 | -4 | 2 | -4 | i | -2 | 3 | 1
COc1ccc(CCC(=O)Nc2ccc(S(=O)(=O)Nc3nccc(C)n3)cc2)cc1 | 1 | -11 | 9 | -2 | i | -2 | 1 | -17
Cc1ccc(-c2noc(CCC(=O)NCc3ccccc3CN3CCOCC3)n2)cc1 | / | -14 | -13 | / | / | 6 | -2 | /
CN(CC(=O)Nc1ccccc1C(F)(F)F)C(=O)Cc1ccc(S(=O)(=O)N2CCOCC2)s1 | 9 | / | -4 | / | i | -1 | -1 | /
C=CCn1c(SCC(=O)Nc2cc(C)on2)nc2sc(CC)cc2c1=O | / | -8 | -4 | 7 | i | 1 | -4 | 1
Cc1nc(N2CCN(Cc3ccc4c(c3)OCO4)CC2)c2oc3ccccc3c2n1 | -26 | -19 | / | / | / | -4 | -16 | /
CCc1ccc(NC(=O)CCC(=O)Nc2nnc(C(F)(F)F)s2)cc1 | -1 | -15 | 3 | / | i | 0 | 3 | /
O=C(COc1ccc2ccc(=O)oc2c1)Nc1ccc(CCO)cc1 | 2 | -21 | -9 | 4 | i | 0 | -1 | -4

Not all compounds are listed, so the mix of outcomes need not match the whole.
